Cruzain inh Det: blocks cruzain activity in presence of Triton detergent. Potency, µM, for inactives: max response, negative = inhibition, most hits filed as inhibitors. 200,000 compounds, 0.43% hits. purified cruzain, Z-FR-AMC fluorescence, 0.01% Triton. AID 1478. P25779;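 further: plate controls were neutral wells for no effect and buffer without enzyme for full effect; nearly all actives have a fitted effect of over 40% in size; top concentration of the series not given in the record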
Target sequence (P25779 123-467 limits assumed): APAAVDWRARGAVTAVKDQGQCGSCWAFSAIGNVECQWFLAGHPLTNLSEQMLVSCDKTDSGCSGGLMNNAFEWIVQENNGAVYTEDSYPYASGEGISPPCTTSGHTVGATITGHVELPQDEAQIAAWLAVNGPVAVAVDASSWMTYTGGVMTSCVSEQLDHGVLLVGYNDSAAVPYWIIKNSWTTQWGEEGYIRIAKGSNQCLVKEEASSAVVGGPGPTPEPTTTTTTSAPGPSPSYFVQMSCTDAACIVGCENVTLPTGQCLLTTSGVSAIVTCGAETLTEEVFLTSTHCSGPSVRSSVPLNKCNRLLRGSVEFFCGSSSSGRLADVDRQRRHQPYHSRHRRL
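Detergent-containing run (0.01% Triton X-100) in acetate buffer pH 5.5 with 5 mM DTT: enzyme at 1.5 nM final, 15 min compound preincubation at room temperature, then 2 uM Z-FR-AMC substrate. Activity taken as 60 s fluorescence increase at 360/450 nm.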
NS1 function inh: inhibitors of influenza NS1 protein function; Potency, µM (series often up to 46.1 µM), inactives show at the top dose activity, positive = more growth; S. cerevisiae slowed by influenza A NS1, growth recovery by OD600; 270,000 compounds, 0.4% hits; AID 2326; active means well fitted rising curve with a large enough effect; inconclusive means small, poorly fitted or top-dose-only effect; inactive means no such curve, though single readings can be large or run the other way; further: nearly all actives have a fitted effect of over 50% in size
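A cell-based growth assay was used: compounds that relieve NS1-induced slow growth of budding yeast raise OD600. Assay medium was yeast nitrogen base with ammonium sulphate and -URA supplement, pH 6.0, with 2% galactose.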
Lassa entry inh: blocks Lassa virus binding to or entry into cells | Lassa virus pseudotype entry inhibition, cell reporter; control for the full effect not named in the record | Potency, µM (highest dose often 37.9 µM), inactives show at the top dose activity change, negative = inhibition, most hits filed as inhibitors | 300,000 compounds, 1.2% hits | AID 540256; active means well fitted inhibition curve with a large enough effect; inconclusive means small, poorly fitted or top-dose-only effect, or effect the other way; inactive means flat fitted curve, though single readings scatter; tested in HEK293 cells; further: on the % scale 0 is the no-effect control and ±100 the full control effect; nearly all actives have a fitted effect of over 50% in size; luciferase read-out
MARV entry inh: Marburg virus entry inhibition; Marburg virus pseudotyped entry inhibition, cell reporter; control for the full effect not named in the record; about a third of the inactives were read at about 46 µM; Potency, µM (highest dose often 37.8 µM), for the others: top-dose activity change, negative = inhibition, usual class: inhibitors; 300,000 compounds, 1.8% hits; AID 540276; active = well fitted inhibition curve with a large enough effect; inconclusive = small, poorly fitted or top-dose-only effect, or effect the other way; inactive = flat fitted curve, though single readings scatter; tested in HEK293 cells; about a fifth of its hits are not listed in these tables; further: on the % scale 0 is the no-effect control and ±100 the full control effect; luciferase read-out
RE007 growth inh: less growth of the S. pombe RE007 Vpr strain; S. pombe RE007 Vpr strain, BacTiter-Glo ATP luminescence, 24 h; control for the full effect not named in the record; Potency, µM (series often up to 92.2 µM), for the others: at the top dose activity change, negative = less growth; 360,000 compounds, 0.21% hits; AID 651644; active = well fitted falling curve with a large enough effect; inconclusive = small, poorly fitted or top-dose-only effect; inactive = no such curve, though single readings can be large or run the other way;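 further: on the % scale 0 is the no-effect control and ±100 the full control effect; nearly all actives have a fitted effect of over 50% in size; the assay follows cell death caused by Vpr and the record does not say whether a fall means rescue or toxicity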
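Fission yeast RE007 carrying one integrated HIV-1 vpr copy, seeded at OD 0.01 in PMG+AL medium with 23 nL pinned compound. Grown 24 h at 30 degrees; viability read by BacTiter-Glo luminescence after 5 min.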
SARS PLP yeast: blocks SARS-CoV papain-like protease in a yeast assay; S. cerevisiae expressing SARS-CoV PLpro, growth rescue; control for the full effect not named in the record; Potency, µM (highest dose often 32.9 µM), without a hit: at the top dose activity, positive = growth rescue; 330,000 compounds, 0.19% hits; AID 485353; active means well fitted rising curve with a large enough effect; inconclusive means small, poorly fitted or top-dose-only effect; inactive means no such curve, though single readings can be large or run the other way; further: 0% is about no effect; nearly all actives have a fitted effect of over 55% in size; growth read by luminescence after 48 h
Cruzain noTriton: cruzain (T. cruzi) inhibition without detergent | P25779 | purified cruzain, Z-FR-AMC fluorescence, no detergent | Potency, µM, inactives show max response, negative = inhibition, actives largely listed as inhibitors | 200,000 compounds, 2.3% hits;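 further: plate controls were enzyme without inhibitor for no effect and buffer without enzyme for full effect; nearly all actives have a fitted effect of over 40% in size; top concentration of the series not given in the record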
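Purified cruzain at 1.5 nM, pre-incubated 15 min with compound at room temperature in 100 mM sodium acetate pH 5.5, 5 mM DTT, 0.00005% Triton X-100. Reaction started with 2 uM Z-FR-AMC; AMC fluorescence increase over 60 s gives rate.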
StopGo reporter: lowers the luciferase signal of an FMDV 2A StopGo reporter; human cells with a luciferase reporter of 2A StopGo recoding; control for the full effect not named in the record; 410,000 compounds, 1.2% hits; Potency, µM (titrated, usually from 57.9 µM), inactives show top-dose signal change, negative = less light; active = well fitted falling curve with a large enough effect; inconclusive = small, poorly fitted or top-dose-only effect; inactive = no such curve, though single readings can be large or run the other way; tested in HEK293T cells; further: on the % scale 0 is the no-effect control and ±100 the full control effect; nearly all actives have a fitted effect of over 45% in size; luciferase light after 4 h
Starred values were filed as active, the others as inactive; ? = inconclusive; . = not tested or not shown; & = joins results of further samples; [ ] = another dose, or the depositor's remark. Unless noted, the call rests on the fitted dose curve; in most records, active means well fitted curve in the direction sought with a large enough effect; inconclusive means small, poorly fitted or top-dose-only effect, or another doubt; inactive means no such curve, though single readings can be large; an effect the other way counts as inactive or inconclusive. Potency means the concentration at half of the fitted maximal effect.

SMILES	Cruzain inh Det	NS1 function inh	Lassa entry inh	MARV entry inh	RE007 growth inh	SARS PLP yeast	Cruzain noTriton	StopGo reporter
N#CC1=C(N)N(c2ncn[nH]2)C2=C(C(=O)CCC2)C1c1ccc(F)cc1 (stereo unspecified)	-0.6%	8%	15%	24%	1%	0%	-4%	0%
COc1cc2c(cc1OC)n(Cc1ccc([N+](=O)[O-])cc1)c(=O)n1nc(-c3ccccc3)nc21	-1.3%	.	-28%[46.1 µM]	.	.	.	-10%	-3%
CCOc1cccc(C2C(C(=O)c3ccc(C)o3)=C(O)C(=O)N2Cc2ccccc2)c1 (stereo unspecified)	.	?	.	.	14%	-4%	.	16%
CC1(C)CC(CNCCC(c2ccc(F)cc2)c2ccco2)CCO1 (stereo unspecified)	.	-1%	0%	?	-12%	2%	.	-2%
CCCNCc1cc(OCC)c(OCC(N)=O)cc1Br	-0.8%	-3%	-6%	-26%	-15%	5%	-6%	-13%
COc1ccccc1N1CCN(C(=O)CC2NC3CCCCC3NC2=O)CC1 (stereo unspecified)	2.1%	6%	.	0%	.	5%	-5%	.
COc1ccc(CNC(=O)Cn2c(=O)oc3cc(S(=O)(=O)N4CCC(C)CC4)ccc32)cc1	-9.2%	.	?	7.1µM*	.	.	-14%	-14%
Cc1ccc(S(=O)CCNC(=O)Cc2ccccc2)cc1 (stereo unspecified)	.	.	?	0%	70%	1%	.	-8%
CCCCN(C)CCCNC(=O)c1cc(-c2cccnc2)nc2ccccc12	0.5%	-4%	?	?	-5%	-3%	1%	12%&-5%
O=C(NCCC1CCCCN1S(=O)(=O)c1ccccc1)C(=O)NCc1ccncc1 (stereo unspecified)	.	.	-11%	-8%	0%	.	.	-24%
COc1ccccc1N(CC(=O)Nc1ccc2c(c1)OCCO2)S(=O)(=O)c1ccc(C)cc1	.	20%	?	?	4%	14%	.	26%
Cc1ccc(Nc2nc(CSc3nnc(-c4ccncc4)n3-c3ccccc3C)cs2)cc1	0.8%	11%	8.9µM*	?	2%	14%	1%	32µM*
COc1ccc(O)c(C(=O)c2cnc3c(c2)c(C)nn3C)c1	.	-24%	-14%	7%[46.1 µM]	-17%	-12%	.	-15%
Fc1ccccc1/C=C1\CCCC2=C1Nc1nnnn1C2c1ccccc1F (stereo unspecified)	0.9%	27%	10%[14.3 µM]	2%	-5%	-1%	?	-23%
CS(=O)(=O)c1cccc(C(=O)Nc2cccc(-c3nc4ccccc4[nH]3)c2)c1	.	-9%	?	0%[46.1 µM]	-25%	-10%	.	11%
Nc1nc2ncc(C(=O)c3cc(Cl)cc(Cl)c3O)cc2s1	.	6%	0%	12%[46.1 µM]	-6%	-4%	.	-1%
Cc1ccccc1C(=O)N1CCC(C(=O)Nc2ccc(F)cc2F)CC1	-2.1%	.	19%[46.1 µM]	-7%[46.1 µM]	.	.	22%	-16%
COC(=O)c1sc(N2CCN(c3ccc(Cl)cc3)CC2)nc1N	.	-8%	?	?	-12%	3%	.	?
CCC(=O)N1CCN=C1SCc1c(F)cccc1Cl	.	18%	.	.	3%	-1%	.	-3%
Cc1ccc(S(=O)(=O)NCCC(=O)OCC(=O)N(Cc2ccccc2)C(C)(C)C)cc1C	.	.	?	13%	-5%	1%	.	3%
COc1ccc(CC(=O)Oc2ccc(C(C)(C)C)cc2)cc1S(=O)(=O)N1CCOCC1	.	.	-7%	24%	2%	2%	.	-9%
Cc1cc(Cl)c2oc(C(=O)N(C)CCCCN3CCOCC3)c(C)c2c1	.	18%	1%[46.1 µM]	0%[46.1 µM]	1%	-4%	.	17%
Cc1cccc(C)c1NC(=O)c1sc(N)nc1-c1ccccc1	.	.	2%	-19%	7%	4%	.	10%
COc1cc(C(=O)NCCc2sc(-c3cccc(F)c3)nc2C)cc(OC)c1OC	-3.4%	.	-21%[46.1 µM]	.	.	.	-3%	-1%
Fc1cccc(CN2CCN(Cc3nc(CCc4ccccc4)no3)CC2)c1	.	-4%	.	.	-8%	0%	.	-22%
Cc1ccc(-n2nc3c(c2NC(=O)c2ccc(OC(C)C)cc2)CS(=O)C3)cc1 (stereo unspecified)	2.2%	2%	-1%	5%[46.1 µM]	0%	2%	11%	-6%
CN1CCc2c(sc(NC(=O)CS(=O)(=O)c3ccccc3)c2C(N)=O)C1	.	.	13%	-1%[46.1 µM]	3%	-6%	.	-22%
COc1ccc(-n2nc(C(=O)NCC(=O)Nc3ccc(F)cc3)c3ccccc3c2=O)cc1	.	-9%	.	24%[46.1 µM]	-3%	0%	.	-19%
Cc1cccc(OCCN2CCOCC2)c1C	.	0%	.	.	3%	-7%	.	-6%
CCC(C)(C)NC(=O)c1cc(S(=O)(=O)N2CCCCC2)ccc1N1CCOCC1	.	.	-4%[46.1 µM]	-24%[46.1 µM]	-1%	2%	.	11%

Taken from above.
Under NS1 function inh, CCC(=O)N1CCN=C1SCc1c(F)cccc1Cl has the entry 18%
Under StopGo reporter, COc1ccc(-n2nc(C(=O)NCC(=O)Nc3ccc(F)cc3)c3ccccc3c2=O)cc1 has the entry -19%
Under RE007 growth inh, COC(=O)c1sc(N2CCN(c3ccc(Cl)cc3)CC2)nc1N has the entry -12%
Under Cruzain noTriton, COc1cc(C(=O)NCCc2sc(-c3cccc(F)c3)nc2C)cc(OC)c1OC has the entry -3%

(list continues)
SMILES	Cruzain inh Det	NS1 function inh	Lassa entry inh	MARV entry inh	RE007 growth inh	SARS PLP yeast	Cruzain noTriton	StopGo reporter
Cc1ccc(OCC(=O)Nc2cccc(O)c2)cc1C	-1.1%	-92%	?	19%[46.1 µM]	-18%	?	-2%	39%[activator]
Cc1cc(C)cc(NC(=O)CSc2nc3ccncc3[nH]2)c1	-4.0%	2%	.	.	-3%	4%	-8%	-10%
COc1ccc(S(=O)(=O)N2CCC(C(=O)NCC3CC3)CC2)cc1	.	2%	?	1%[46.1 µM]	8%	-1%	.	-15%
CCn1c(CNC(=O)c2cccc(C)c2)nnc1SCC(=O)Nc1nnc(C)s1	.	-5%	20%[46.1 µM]	0%[46.1 µM]	2%	0%	.	15%
COC(OC)c1ccnc(-c2ccc(OC(=O)c3ccc(F)cc3)cc2)n1	.	.	5%[46.1 µM]	?	-17%	-6%	.	?
CN(C/C=C/c1ccccc1[N+](=O)[O-])Cc1ccccc1	.	-7%	.	.	-9%	-2%	.	13%
Cn1nnnc1-c1cc(Br)ccc1NC(=O)c1ccccc1	1.8%	-4%	3%	-1%&-1%	-3%	-7%	-13%	-26%
Cc1ccc(C)c(OCCCCn2cnc3ccccc3c2=O)c1	-5.1%	-37%	0%	-5%	-10%	21%	4%	-19%
Cc1ccn2c(=O)c(NC(=O)c3cccs3)c(C)nc2c1	.	.	14%	1%[46.1 µM]	-1%	-2%	.	-7%
CCC(C)n1c(SCC(=O)NC(=O)c2cccn2C)nc2ccccc2c1=O (stereo unspecified)	.	.	?	?	11%	4%	.	-28%
CSc1ccc(CCNC(=O)CCc2c(C)nc3c4cccnc4nn3c2C)cc1	-6.0%	.	28%[46.1 µM]	-17%[46.1 µM]	.	.	-10%	-26%
CN(C)c1ccc(/C=N/NS(=O)(=O)c2ccc(Br)cc2)cc1	.	-1%	3%	-1%[46.1 µM]	1%	1%	.	55%[activator]
Cc1cccc(Cn2c(SCc3ccc(C(=O)NCc4ccccc4F)cc3)nc3ccncc32)c1	-13%	.	.	?	.	.	-24%	0%
COc1cc2c(cc1NC(=O)C(C)OC(=O)/C=C/c1ccc(OC(F)F)cc1)oc1ccccc12 (stereo unspecified)	-0.2%	-12%	16%	?	8%	-13%	32µM*	7%
O=C(CN1CCN(S(=O)(=O)c2ccccc2Cl)CC1)NCC1(N2CCOCC2)CCCCC1	.	.	?	20%[46.1 µM]	2%	-2%	.	-8%
Cc1ccc(CS(=O)(=O)CCC(=O)NCc2ccccn2)cc1	3.6%	10%	0%	19%	-16%	-3%	-1%	-10%
COc1ccc(-c2cc(C(=O)NCc3ccc(F)cc3)no2)cc1	-0.5%	.	?	-12%[46.1 µM]	.	.	?	-5%
Cc1cccc(S(=O)(=O)NNC(=O)c2cc(-c3ccc(F)cc3)nc3ccccc23)c1	.	3%	.	.	-18%	0%	.	-8%
C[C@@H]1CN(Cc2nc(-c3ccc(Cl)cc3)no2)C[C@H](C)O1	.	0%	-6%[46.1 µM]	?	-15%	1%	.	10%
CC(C)CN(C(=O)c1ccc(F)cc1F)c1c(N)n(CC(C)C)c(=O)[nH]c1=O	.	4%	-19%[46.1 µM]	21%[46.1 µM]	2%	25%	.	1%
Cc1cc(C)c2nc(NC(=O)CN3C(=O)NC4(CCCC4)C3=O)sc2c1	.	.	?	?	2%	-2%	.	-7%
COC(=O)c1cc(-c2cc(OC)ccc2OC)nc2c1c(=O)n(C)c(=O)n2Cc1ccccc1	.	-42%	4%	1%[46.1 µM]	0%	0%	.	?

Molecules above that have a nitro group on carbon, in the order listed:
SMILES	Cruzain inh Det	NS1 function inh	Lassa entry inh	MARV entry inh	RE007 growth inh	SARS PLP yeast	Cruzain noTriton	StopGo reporter
COc1cc2c(cc1OC)n(Cc1ccc([N+](=O)[O-])cc1)c(=O)n1nc(-c3ccccc3)nc21	-1.3%	.	-28%[46.1 µM]	.	.	.	-10%	-3%
CN(C/C=C/c1ccccc1[N+](=O)[O-])Cc1ccccc1	.	-7%	.	.	-9%	-2%	.	13%

A draw from above in order of length of the SMILES, ascending:
SMILES	Cruzain inh Det	NS1 function inh	Lassa entry inh	MARV entry inh	RE007 growth inh	SARS PLP yeast	Cruzain noTriton	StopGo reporter
Cc1ccc(CS(=O)(=O)CCC(=O)NCc2ccccn2)cc1	3.6%	10%	0%	19%	-16%	-3%	-1%	-10%
COc1ccc(-c2cc(C(=O)NCc3ccc(F)cc3)no2)cc1	-0.5%	.	?	-12%[46.1 µM]	.	.	?	-5%
Cc1cccc(S(=O)(=O)NNC(=O)c2cc(-c3ccc(F)cc3)nc3ccccc23)c1	.	3%	.	.	-18%	0%	.	-8%
